Screening results: PubChem BioAssay, National Center for Advancing Translational Sciences (NCATS)
PINK1 expr mod = PINK1 expression modulation. PINK1 immunofluorescence, high-content cytometry, 24 h. Potency, µM (top dose mostly 76.6 µM), for inactives: at the highest dose activation (PINK1 increase), most hits filed as activators. 410,000 compounds, 0.2% hits; active = well fitted activation curve with a large enough effect; inconclusive = small, poorly fitted or top-dose-only effect; inactive = flat fitted curve, though single readings scatter; cell line not stated here;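 note: potency is the fitted concentration of half-maximal effect; % of control where 0% means no effect; nearly all actives have a fitted effect of over 65% in size; a mitochondrial uncoupler was the plate control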
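Cells are seeded, rested 12 hours, then given compound at five concentrations or DMSO for 24 hours. After fixation, blocking and antibody staining, PINK1 amount and mitochondrial localization are scored; CCCP serves as control.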
TRPV1 PAM = potentiators of human vanilloid receptor 1 (TRPV1); TRPV1-expressing cells, Fluo-8 calcium influx, capsaicin EC20 potentiation; host cell line not named in the record; control for the full effect not named in the record; 320,000 compounds, 0.02% hits; Q8NER1; potentiation, % at 8.33 µM; active means potentiation above 80%; inconclusive means 30% to 80%; inactive means below 30%; note: 0% is about no effect
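TRPV1-expressing cells were cultured overnight at 35.5C and loaded with Fluo-8 calcium dye for 40 to 90 min at room temperature. After a 10 s baseline, compound was added and calcium influx was read kinetically for 3 min (ex 480/em 520 nm).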
CtBP-E1A blk = CtBP/E1A binding inhibition. AlphaScreen GST-E1A/His-CtBP binding, 1536-well; active compounds read low; control for the full effect not named in the record. activity change, % (no concentration beside the values). 340,000 compounds, 0.49% hits. AID 651724; in the data active means activity change below about -65%; inconclusive means about -30% to -65%; inactive means above about -30%; note: % is set by controls: 0 for no effect and ±100 for the full control effect
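Protein mix (5X: 125 nM each GST-E1A, His-CtBP) was incubated with pinned compound 2 h at 37 deg C in dark, in 50 mM Tris pH 8.0 buffer with 300 mM NaCl. Glutathione donor and nickel acceptor beads followed; AlphaScreen signal read after 1 h.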
D2 agonist = activates the human D2 dopamine receptor | P14416 | DiscoveRx PathHunter D2 beta-arrestin, luminescence, 90 min; 100% = 57 uM dopamine signal | activation, % (test concentration not listed) | 360,000 compounds, 0.084% hits | AID 624465; in the data active = activation above about 40%; inconclusive = about 15% to 40%; inactive = below about 15%; note: compound concentration not given in the record; the text of the record calls up to 30% inactive
Target sequence (P14416 whole entry, looked up): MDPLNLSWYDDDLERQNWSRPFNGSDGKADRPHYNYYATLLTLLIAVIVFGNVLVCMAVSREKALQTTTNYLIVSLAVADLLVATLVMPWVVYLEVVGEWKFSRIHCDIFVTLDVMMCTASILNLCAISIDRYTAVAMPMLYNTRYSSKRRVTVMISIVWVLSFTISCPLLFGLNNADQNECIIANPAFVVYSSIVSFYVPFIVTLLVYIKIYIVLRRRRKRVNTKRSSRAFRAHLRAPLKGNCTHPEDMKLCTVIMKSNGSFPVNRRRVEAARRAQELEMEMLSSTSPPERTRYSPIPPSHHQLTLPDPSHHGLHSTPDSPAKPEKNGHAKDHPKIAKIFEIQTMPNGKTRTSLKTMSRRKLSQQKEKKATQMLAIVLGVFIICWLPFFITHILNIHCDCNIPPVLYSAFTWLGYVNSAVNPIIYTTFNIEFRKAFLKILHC
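Agonist mode: compounds alone added to overnight-plated D2 PathHunter cells for 90 min at 37 C, with 57 uM final dopamine (EC100) defining full response. Beta-arrestin recruitment detected by chemiluminescent reagent, read after 1 h at ambient temperature.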
D2 potentiator = human D2 receptor positive allosteric modulation. P14416. DiscoveRx D2 beta-arrestin cells, luminescence, 90 min; 100% = 57 uM dopamine signal. potentiation, % (no concentration beside the values). 360,000 compounds, 0.23% hits. AID 624464; active = potentiation of 50% or more; inconclusive = 30% to 50%; inactive = 30% or less;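 note: compound concentration not given in the record; tested on top of an EC20 dose of dopamine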
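PathHunter D2 cells, attached overnight at 37 deg C, received compound in DMSO plus dopamine at EC20 (50 nM final) for 90 min at 37 deg C. Beta-arrestin recruitment was read as luminescence after 1 h with detection reagent at ambient temperature.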
Sfp inh = blocks B. subtilis Sfp PPTase activity; Potency, µM, for the others: max response, negative = inhibition, usual class: inhibitors; Biochemical Sfp PPTase activity, qHTS; 310,000 compounds, 3.5% hits; active = well fitted inhibition curve with a large enough effect; inconclusive = small, poorly fitted or top-dose-only effect, or another doubt; inactive = no such curve, though single readings can be large or run the other way;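 note: the enzyme is Sfp with the accession as filed and its product quenches rhodamine fluorescence; potency is the fitted concentration of half-maximal effect; 0% = enzyme reaction without inhibitor and -100% = no enzyme wells; top concentration of the series not given in the record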
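With Hepes-Na pH 7.6 buffer containing 10 mM MgCl2, Sfp (15 nM) modified BHQ-2-YbbR (12.5 uM) using rhodamine-CoA (5 uM). Two reads 30 minutes apart at 525/598 nm yielded each well's rate.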
Six1-Eya2 inh = Six1/Eya2 interaction inhibition; AlphaScreen GST-Six1/His-Eya2 binding, biochemical; active compounds read low; control for the full effect not named in the record; activity change, % (concentration not given with the values); 360,000 compounds, 0.56% hits; AID 651725; in the data active = activity change below about -65%; inconclusive = about -30% to -65%; inactive = above about -30%; note: % is set by controls: 0 for no effect and ±100 for the full control effect
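GST-Six1 + His-Eya2 (5X stock: 250/500 nM); Tris pH 8.0, 300 mM NaCl, 0.05% BSA, 0.02% Tween 20; GSH donor/Ni acceptor beads; 1 h 37 °C dark; AlphaScreen readout.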
The depositor's hits bear a star; ? = inconclusive; nt = no result given; [ ] = remark or other dose. Some of the compounds tested. The share of hits here may be higher or lower than overall.

Codes – A = PINK1 expr mod; B = TRPV1 PAM; C = CtBP-E1A blk; D = D2 agonist; E = D2 potentiator; F = Sfp inh; G = Six1-Eya2 inh
> CC(=NCCO)c1c(O)n(C2CCCCC2)c(=O)[nH]c1=O
  A = 0.2%	B = -0.2	C = 0.6	D = -2.7	E = -11.5	F = 12.2%	G = -0.3
> COC[C@H]1OC(=O)c2coc3c2[C@@]1(C)C1=C(C3=O)[C@@H]2CCC(=O)[C@@]2(C)C[C@H]1OC(C)=O
  A = 0.9%	B = nt	C = -3.1	D = 4.1	E = -9.3	F = 35.5µM*	G = -3.6
> COC(=O)C1=C(C(=O)OC)C2OC1c1cc3ccccc3cc12
  A = -0.7%	B = nt	C = 10.8	D = -4.4	E = -39.0	F = nt	G = -9.7
> O=c1c(/C=N/N2CCOCC2)c(O)n(-c2ccccc2)c(=S)n1-c1ccccc1
  A = 0.1%	B = 19.2	C = -10.9	D = -3.0	E = -11.3	F = -22.9%	G = 2.1
> CC(=O)OC1N=C(c2ccccc2)c2cc(Br)ccc2N(C)C1=O (configuration not stated)
  A = -0.2%	B = -17.5	C = 7.7	D = 0.5	E = 7.1	F = 9.1%	G = -3.5
> O=C(CNC(=O)c1ccccc1)Nc1ccc(Br)cc1C(=O)c1ccccc1
  A = 0.0%	B = 0.5	C = -1.8	D = -3.0	E = -0.9	F = -11.1%	G = -6.0
> Fc1ccc(C(OCCN2CCCC2)c2ccc(F)cc2)cc1
  A = 0.9%	B = -21.5	C = 9.3	D = -5.3	E = -40.9	F = 3.0%	G = 11.1
> COC(=O)C1=C(c2cccc(OC)c2OC)C[C@@H]2CC[C@H]1N2C(=O)N1CCCCC1
  A = 0.1%	B = nt	C = 7.2	D = 0.0	E = -7.2	F = nt	G = 2.3
> C=CP(=O)(O)c1ccccc1
  A = 1.2%	B = -17.5	C = 1.5	D = 1.2	E = -9.4	F = 23.7%	G = 15.5
> CCN1CCN(c2ncnc3ccc(Br)cc23)CC1
  A = -1.8%	B = 7.0	C = -1.8	D = -7.1	E = -35.0	F = 2.2%	G = 4.5
> O=c1c(C=NCc2cccs2)c(O)n(C2CCCCC2)c(=O)n1C1CCCCC1
  A = 6.7%	B = 7.8	C = -10.9	D = -1.7	E = -13.8	F = 13.0%	G = -13.5
> CN1CCC2(CC1)NC(=O)c1ccccc1N2
  A = 1.0%	B = -4.8	C = 2.4	D = -0.4	E = -8.0	F = -6.3%	G = 6.7
> O=C1NC(=O)N(c2ccc3c(c2)OCO3)C(=O)/C1=C/c1ccc(N2CCCC2)o1
  A = 0.7%	B = -0.8	C = 3.6	D = -10.2	E = -15.1	F = -8.9%	G = -2.0
> Cc1nn(Cc2ccccc2)c(Cl)c1C(=O)O
  A = -2.3%	B = 12.3	C = 4.0	D = -0.8	E = -3.1	F = 15.9%	G = -9.6
> CCOC(=O)C1(c2ccccc2)CCN(CCC(C#N)(c2ccccc2)c2ccccc2)CC1
  A = 11.7%	B = nt	C = -10.0	D = -3.9	E = -35.7	F = 9.2%	G = -13.7
> ClCCN1CCSCC1
  A = -0.2%	B = nt	C = -12.1	D = -2.5	E = -4.7	F = nt	G = 8.2
> NP(=O)(OCC(F)(F)F)Oc1ccc(Cl)cc1 (configuration not stated)
  A = 1.0%	B = 7.8	C = -16.2	D = -5.4	E = 3.1	F = 10.7%	G = 10.0
> CC12CCC(=O)C=C1C=CC1C2CCC2(C)C(O)CCC12 (configuration not stated)
  A = 0.1%	B = nt	C = 2.4	D = -0.7	E = -4.5	F = nt	G = 8.8
> O=c1[nH]c(=O)n(Cc2ccc(F)cc2)c(O)c1C=NCc1cccnc1
  A = 4.7%[38.3 µM]	B = 1.5	C = 4.1	D = 0.2	E = -0.9	F = 3.3%	G = 3.4
> COc1ccc(OC)c(CC(=O)N(C)C2CCCN(Cc3ccccc3F)C2)c1 (configuration not stated)
  A = -1.2%	B = 0.1	C = -3.4	D = -2.0	E = -2.8	F = 8.9%	G = -1.9
> Cn1c(O)c(C(=O)c2ccccc2Cl)c(=O)n(C)c1=O
  A = -0.9%	B = ?	C = -8.6	D = -1.4	E = -4.2	F = -23.8%	G = 4.2
> COc1ccc(-c2ccc3c(c2)CNCc2cnnn2-3)cc1
  A = 0.3%	B = nt	C = 3.1	D = 6.2	E = 2.3	F = nt	G = 7.2
> Cc1ccc(OCCOc2cccc(C=C3C(=O)NC(=O)NC3=O)c2)c(C)c1
  A = 3.4%	B = -4.0	C = 36.2	D = -0.6	E = 1.1	F = 50.1µM*	G = 17.0
> COC(=O)C1=C(c2ccc(-c3ccccc3)c(F)c2)C[C@@H]2CC[C@H]1N2C(=O)NCCCOC(C)C
  A = 17.6%	B = -10.4	C = -2.3	D = -5.8	E = -23.1	F = nt	G = 2.7
> Cc1cccc(N2C(=O)NC(=O)/C(=C\C=C\c3ccco3)C2=O)c1
  A = 1.9%	B = -24.4	C = 0.3	D = 0.6	E = -9.0	F = 44.7µM*	G = -1.1

Four compounds from above, ordered by length of the SMILES, lowest first.
Codes – A = PINK1 expr mod; B = TRPV1 PAM; C = CtBP-E1A blk; D = D2 agonist; E = D2 potentiator; F = Sfp inh; G = Six1-Eya2 inh
> COc1ccc(-c2ccc3c(c2)CNCc2cnnn2-3)cc1
  A = 0.3%	B = nt	C = 3.1	D = 6.2	E = 2.3	F = nt	G = 7.2
> Cn1c(O)c(C(=O)c2ccccc2Cl)c(=O)n(C)c1=O
  A = -0.9%	B = ?	C = -8.6	D = -1.4	E = -4.2	F = -23.8%	G = 4.2
> Cc1cccc(N2C(=O)NC(=O)/C(=C\C=C\c3ccco3)C2=O)c1
  A = 1.9%	B = -24.4	C = 0.3	D = 0.6	E = -9.0	F = 44.7µM*	G = -1.1
> COC(=O)C1=C(c2cccc(OC)c2OC)C[C@@H]2CC[C@H]1N2C(=O)N1CCCCC1
  A = 0.1%	B = nt	C = 7.2	D = 0.0	E = -7.2	F = nt	G = 2.3

Carrying on.
Codes – A = PINK1 expr mod; B = TRPV1 PAM; C = CtBP-E1A blk; D = D2 agonist; E = D2 potentiator; F = Sfp inh; G = Six1-Eya2 inh
> NC(Cc1ccccc1)Cc1ccccc1
  A = 0.2%	B = 7.4	C = -1.9	D = -6.2	E = -2.1	F = 9.9%	G = 13.3
> Cc1c(C)c2ccc(OCC(=O)N3C[C@H]4C[C@@H](C3)c3cccc(=O)n3C4)c(C)c2oc1=O
  A = -0.4%	B = -9.0	C = -10.2	D = -3.8	E = -24.4	F = 16.2%	G = -0.3
> c1ccc(C2c3ccccc3-n3nncc3CN2CC2CCCCC2)cc1 (configuration not stated)
  A = 14.8%	B = nt	C = 0.0	D = -2.1	E = -12.9	F = nt	G = -8.7
> O=c1[nH]c(CN2CC=C(c3ccccc3)CC2)nc2cc(C(F)(F)F)ccc12
  A = 0.2%	B = 7.2	C = -0.4	D = -3.8	E = -6.1	F = 4.7%	G = -5.0
> O=P(C(=Nc1ccc(Cl)cc1)N1CCOCC1)(N1CCOCC1)N1CCOCC1
  A = -0.7%	B = 1.9	C = 3.2	D = -4.6	E = -29.2	F = 7.0%	G = -1.4
> Cc1cc([N+](=O)[O-])c(Cl)cc1NC(=O)C(C)C
  A = -0.6%	B = -4.8	C = 0.0	D = -2.1	E = -23.7	F = 9.6%	G = -5.1
> O=C(c1ccc(Cl)cc1)C1CCCN(Cc2cccc3ncccc23)C1 (configuration not stated)
  A = 0.2%	B = 10.5	C = nt	D = 1.6	E = -13.5	F = -0.9%	G = 3.8
> Cc1cccc(N2C(=O)NC(=O)/C(=C\c3cccn3-c3ccc(Cl)cc3)C2=O)c1
  A = -1.7%	B = -10.9	C = -8.3	D = 1.2	E = 0.8	F = 50.1µM*	G = -26.6
> CC1CCCCN1C(=O)c1ccc(N2CC3CC(C2)c2cccc(=O)n2C3)c([N+](=O)[O-])c1 (configuration not stated)
  A = 4.4%	B = 3.1	C = -2.7	D = 0.8	E = -7.7	F = 4.4%	G = 6.4
> FC(F)(F)c1ccccc1CN1CCN(Cc2ccccc2)CC1
  A = 3.4%[38.3 µM]	B = -0.9	C = 0.0	D = -0.7	E = -23.1	F = ?	G = -2.8
> CC(C)NC(C)C(=O)C12CC3CC(CC(C3)C1)C2 (configuration not stated)
  A = 2.5%	B = -2.3	C = -1.9	D = -1.2	E = -5.1	F = 5.1%	G = 10.3
> NS(=O)(=O)c1nc[nH]c1[N+](=O)[O-]
  A = 1.2%	B = nt	C = -3.7	D = -3.2	E = -13.9	F = nt	G = 8.3
> CCN1C[C@@]2(COC)C3[C@@H](OC)[C@H]4[C@@H]1[C@@]3(C1C[C@H]3[C@H](OC(=O)c5ccccc5)C1[C@]4(OC(C)=O)C[C@H]3OC)[C@@H](OC)C[C@H]2O (some centres not stated)
  A = 0.0%	B = nt	C = 8.4	D = -5.0	E = -2.2	F = nt	G = -0.9
> O=C(Nc1ccc(Cl)cc1)O/N=C(\c1ccccc1)c1ccccn1
  A = 1.0%[38.3 µM]	B = -3.1	C = ?	D = -0.8	E = -2.4	F = 39.8µM*	G = ?
> C=CCC1(CCCCC)C(=O)NC(=S)NC1=O
  A = -0.1%	B = nt	C = -2.8	D = -3.2	E = -10.1	F = nt	G = 9.9
> O=C(Nc1cccc2ccccc12)c1nn(C23CC4CC(CC(C4)C2)C3)cc1Br
  A = -1.1%	B = 7.6	C = -3.1	D = -3.5	E = -7.5	F = 0.8%	G = -2.6
> O=C(NCC1=C(c2ccc3ccccc3c2)C[C@@H]2CC[C@H]1N2Cc1ccco1)c1cccs1
  A = 2.0%	B = nt	C = -23.4	D = -5.1	E = -10.9	F = nt	G = -18.8
> c1ccc(SSc2ccccc2)cc1
  A = 1.4%	B = 7.3	C = -4.4	D = 6.2	E = -1.2	F = ?	G = -4.0
> O=C(CCc1nnc2ccc(NCc3ccc(F)cc3)nn12)N1CCC2(CC1)OCCO2
  A = 0.3%	B = ?	C = -4.6	D = -5.4	E = -1.6	F = 9.8%	G = -0.4
> CCC12C=CCN3CCC4(c5cc(Br)c(OC)cc5N(C)C4C(O)(C(=O)OC)C1OC(C)=O)C32 (configuration not stated)
  A = -0.2%	B = -35.2	C = -5.4	D = -5.7	E = -2.0	F = -3.8%	G = -13.2
> NC(Cc1ccccc1)c1nc2ccccc2[nH]1 (configuration not stated)
  A = -1.9%	B = -4.3	C = -5.8	D = 0.7	E = -7.6	F = -9.1%	G = -14.4
> C=CC[C@@H](CC/C=C/C=C/CC/C=C\[C@@H]1CSC([C@@H]2C[C@@H]2C)=N1)OC
  A = -0.2%	B = nt	C = 6.5	D = 5.0	E = nt	F = nt	G = 10.1
